Assay outcomes deposited in PubChem by several laboratories.
CSC inhib – cancer stem cell viability inhibitors, primary screen, luminescence; cancer stem cell-like cells viability; inhibition, % at 7.5 µM; hit rate 1.1% among 300,000; AID 2717, 2010;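 active = mean at 75% or more and at least half the replicates too; inconclusive = mean and replicates disagree; tested in HMLE shEcad cells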;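 note: 0% = median of negative and 100% = median of positive control wells; the first replicate is given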
MT1-MMP act inh – blockers of MT1-MMP proenzyme processing, primary screen, HT1080 RFP-PRO-GFP cells, GFP/RFP fluorescence. Matrix metalloproteinase-14 (Homo sapiens), P50281. GFP/RFP ratio fluorescence, overnight; percent of plate control window, DMSO zero. GFP/RFP ratio change, % at 20 µM. hit rate 0.061% among 360,000. AID 651647, 2012;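 active = GFP/RFP ratio change of at least 30% with cell ATP level not reduced by more than half and red fluorescence within 50% of control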; note: strong numbers were not always called active
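Assay system: RFP-PRO-GFP reporter HT1080 cells; read-out basis: GFP/RFP fluorescence ratio; benchmarks: DMSO wells and RFP-L50D-GFP cells; doses: 20 µM single dose, 1% DMSO; schedule: overnight cell settling, then overnight compound exposure, 37 °C, 5% CO2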
eIF4H FP inh – human eIF4H binding inhibitors, primary screen, translation initiation inhibitor project, biochemical, uHTS, fluorescence polarization | inhibition, % at 35 µM | hit rate 0.94% among 290,000 | Eukaryotic translation initiation factor 4H (Homo sapiens), Q15056 | eIF4H fluorescence polarization binding assay;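 active = 50% or more with normal probe brightness, or confirmed in later tests; inconclusive = above 50% with abnormal brightness, or retests that disagree; inactive = below 50% or failed in later tests; about a fifth of its hits are not listed in these tables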;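 note: calls also rest on retests at 20 µM and on dose response follow-up; 0% = protein and probe with vehicle and 100% = probe without protein; strong numbers were not always called active; many hits fall short of the cut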
PABP polyA inh – PABP poly(A) RNA binding inhibitors, primary screen, biochemical, fluorescence polarization, uHTS. Polyadenylate-binding protein 1 (Homo sapiens), P11940. inhibition, % at 35 µM. hit rate 1% among 290,000;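 active = 50% or more with normal probe brightness, or confirmed in later tests; inconclusive = above 50% with abnormal brightness, or retests that disagree; inactive = below 50% or failed in later tests; about a fifth of its hits are not listed in these tables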;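 note: calls also rest on retests at 20 µM and on dose response follow-up; controls were probe without protein and protein plus probe with vehicle; some compounds called inactive have numbers as strong as hits; many hits fall short of the cut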
HIV Env fusion – inhibitors of HIV-1 Env-driven cell-cell fusion, primary screen, HeLa-JRFL effector, CEM21 target cells, luciferase; inhibition, % at 12.3 µM; hit rate 1.1% among 360,000;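 active = mean replicate inhibition score of at least 50 and every replicate individually at or above 50; inconclusive = only one of the two criteria met; inactive = mean below 50 and not all replicates reaching 50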;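 note: 0% = plate neutral controls and 100% = maraviroc near 300 nM; one replicate is shown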
Yeast UUG start – modulators of yeast start codon fidelity, primary screen, whole organism, S. cerevisiae, single point, plate reader; S. cerevisiae UUG-firefly luciferase reporter, luminescence/redox ratio; activity score, % at 18.7 µM; hit rate 0.13% among 350,000;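 active = replicate mean at a twofold rise or more, about +100% in these data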;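 note: firefly luciferase made from a UUG start codon reports start codon fidelity; reporter light over untreated wells divided by growth signal over untreated wells; some hits fall short of that in this replicate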
Rce1 inhib – yeast Rce1p protease inhibitors, primary screen, biochemical, fluorescence, cell-free homogeneous; yeast membranes, quenched prenylated peptide cleavage fluorescence; calls only; hit rate 0.27% among 290,000; AID 2563, 2010;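 active = fall in fluorescence gain of 50% or more versus controls, with final raw signal at or below 3038400; inconclusive = same 50% fall but final raw signal above 3038400; inactive = fall in fluorescence gain under 50%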;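 note: plate controls were neutral control wells for no effect and wells lacking membranes for full effect; tested at 10 µM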
Target sequence (Q03530 whole entry, looked up): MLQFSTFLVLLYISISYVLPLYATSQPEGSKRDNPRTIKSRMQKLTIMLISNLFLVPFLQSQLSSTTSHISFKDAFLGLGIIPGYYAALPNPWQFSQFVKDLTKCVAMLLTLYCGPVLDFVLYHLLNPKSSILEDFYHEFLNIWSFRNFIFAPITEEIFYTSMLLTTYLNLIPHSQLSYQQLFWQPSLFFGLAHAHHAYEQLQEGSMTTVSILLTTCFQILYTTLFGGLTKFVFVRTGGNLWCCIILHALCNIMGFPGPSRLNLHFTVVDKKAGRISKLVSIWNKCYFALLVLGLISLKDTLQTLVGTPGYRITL
MT1-MMP act inh RFP – also measured in MT1-MMP act inh; calls as there; RFP signal change, %; measured here: RFP expression control read;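 0 = vehicle wells; hits needed this value within 50% of zero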
* = called active by the depositor; i = inactive; u = inconclusive; x = not tested or not shown; & = joins results of further samples. This is a subset. The share of hits here may be higher or lower than overall.

Values run as follows: CSC inhib, MT1-MMP act inh, MT1-MMP act inh RFP, eIF4H FP inh, PABP polyA inh, HIV Env fusion, Yeast UUG start, Rce1 inhib
O=C(/C=C/c1ccccc1Cl)NCc1ccccc1
  2, 5, -1, -5, 3, -25, -2, i
COc1ccc(C2=NS(=O)(=O)N(C)C(C(=O)N3CCCCC3C)=C2)cc1 (stereo unspecified)
  -5, 0, -3, 6, -6, 60*, -18, i
COc1ccc(NC(=O)c2ccccc2NC(=O)c2cccs2)cc1
  4, -2, -2, 2, -9, 3, 3, i
Cn1cnnc1SCc1ccccc1
  -4, 4, 0, 6, 5, x, -13, i
COC(=O)c1ccccc1NC(=O)COC(=O)CO/N=C(\C)c1ccc2c(c1)OCO2
  -11, -1, 2, -13, -7, 18, 4, i
COc1ccc(C(=O)NC2CCN(C(=O)Nc3ccc(F)cc3)CC2)cc1
  -4, 1, -1, -20, 7, 11, 3, i
O=C(Oc1ccc(Cl)cc1)c1ccc(N2CCOCC2)c([N+](=O)[O-])c1
  -5, 1, 3, 3, -2, 3, 0, i
CC(C)NC(=O)Nc1cccc2c1O[C@H](CN(C)S(C)(=O)=O)[C@@H](C)CN([C@H](C)CO)C2=O
  x, 7, 6, x, x, -87, -15&5, x
CC(=O)Cn1ncc(N(C)Cc2ccccc2)c(Cl)c1=O
  2, 0, -1, 4, 14, -10, -25, i
O=C(COc1ccc(Cl)cc1)NCCNc1ccc([N+](=O)[O-])cc1
  -2, -3, -1, 2, 5, 3, -14, i
CCc1noc(C)c1C(=O)N1CCCC(CCC(=O)NCc2ccc(F)c(F)c2)C1 (stereo unspecified)
  -8, -6, 0, -11, -8, 8, x, i
Cc1cc(C)c2[nH]c(=O)c(CN(Cc3ccccc3)C(=S)NCCCN(C)C)cc2c1
  -2, -2, -3, 2, -3, 3, x, i
COC(=O)c1ccc(N/C(C)=C/C(=O)c2ccc(C)o2)cc1
  -2, -2, 0, -17, 1, x, -12, i
COc1ccc2[nH]c3c(=O)n(/N=C/[C@H]4C(C)C=C(C)CC4C)c(=O)[nH]c3c2c1 (stereo partly specified)
  88*, -2, -4, -1, 15, -42, 1, i
O=C(O)Cn1c(=O)cnc2ccccc21
  -8, -5, 6, 3, 14, 19, -13, i
COC(=O)c1c(NC(=O)CN2CCN(c3ncccn3)CC2)sc(C(N)=O)c1C
  8, -1, 0, 10, 26, 12, -19, i
COc1ccccc1NC(=O)Cc1nnc(SCC(=O)Nc2ccc(F)cc2F)n1C
  -1, -1, 0, 0, 3, -2, -14, i
COC(=O)c1c(C(=O)OC)c(-c2ccc(F)cc2)n2c1CSC2
  0, 0, -2, -9, -7, 4, -11, i
NS(=O)(=O)c1ccc(CCNC(=O)CCCNC(=O)c2ccc(Cl)cc2)cc1
  -14, 0, 1, -2, 1, 8, -5, i
O=C(Nc1ccccc1)Nn1cnnc1
  -1, -2, 3, -2, 12, -6, -17, i
CCOC(=O)Cn1nc(-c2ccc(F)cc2)oc1=O
  -5, 8, 8, 2, 8, x, x, i
COc1ccc(/C=N/NC(=S)Nc2ccccc2)cc1COc1cccc(C)c1C
  0, 1, -1, 0, -7, -69, -9, i
COc1ccc(-c2nn(-c3ccccc3)cc2C(=O)NC2CCC(C)CC2)cc1 (stereo unspecified)
  -13, -5, 2, x, x, 6, -9, i
CCCCNC(=O)CNC(=O)c1nn(-c2ccc(OC)cc2OC)c(=O)c2ccccc12
  -14, 0, 4, -3, 6, u, x, i
CC(C)(C)OC(=O)N/N=C\c1cccnc1
  -15, 7, -3, 5, -12, 7, x, i
Cc1nc(C)c(C(=O)Nc2cccc(Cl)c2)o1
  -2, -3, 5, 6, 8, -12, -15, i
O=C(c1cc(F)c(F)c(F)c1F)N1CCN(C(=O)C2CCCO2)CC1 (stereo unspecified)
  0, -1, 7, x, x, 10, x, x
CCN(CC)c1ccc(/C=N/NC(=S)NCc2ccccc2)cc1
  46, -19, -16, -9, 0, 2, -34, i
CC(=O)Oc1ccc2c(=O)c(-c3ccccc3)coc2c1
  -3, 1, 1, 5, -2, -44, x, i
CC(C)Cn1c(-c2cc([N+](=O)[O-])ccc2Cl)nc2c1c(=O)[nH]c(=O)n2Cc1ccccc1
  -7, -11, -8, 2, 19, x, x, i

Values run as follows: CSC inhib, MT1-MMP act inh, MT1-MMP act inh RFP, eIF4H FP inh, PABP polyA inh, HIV Env fusion, Yeast UUG start, Rce1 inhib
CC(=O)O/N=C/c1c(N2CCOCC2)n(C)c2ccccc12
  -15, -5, -2, 4, 12, 42, -13, i
O=CNCCCc1nc2ccccc2n1CCc1ccccc1
  3, -1, -1, 1, 2, 2, -11, i
CCCCCCN1C[C@@H](O)[C@H](n2cc(COC(=O)c3ccccc3)nn2)C[C@@H]1c1ccc(OC)cc1
  x, 3, 3, x, x, -15, -4, x
CC1Cc2cc(-c3csc(NC(=O)Cc4cccs4)n3)ccc2N1S(C)(=O)=O (stereo unspecified)
  26, -7, -24, -16, -17, 75*, -9, i
CCN(Cc1ccncc1)C(=O)c1cc(COc2ccc(C)c(C)c2)on1
  25, 1, -13, -2, 6, 13, 1, i
CCC(CC)C(=O)c1c[nH]c(C(=O)NCc2ccco2)c1
  3, -7, -3, 3, 11, -31, -16, i
CC(C)C[C@@H](CO)N1CCN(Cc2ccc([N+](=O)[O-])cc2)CCC1=O
  4, 0, -7, 0, -7, -10, -19, i
COCCNc1nc2c(c(=O)n(Cc3ccccc3F)c(=O)n2C)n1C
  -4, 5, 1, 14, 12, 1, -6, i
C=CCOc1nc2c(c(=O)n(C)c(=O)n2C)n1Cc1ccc(Cl)cc1
  -11, -8, -16, 5, -9, 24, x, i
O=C(NNC(=O)c1ccc(Cl)c([N+](=O)[O-])c1)c1ccncc1
  0, 4, 2, 3, -4, 0, -23, i
N#Cc1nc(-c2cccs2)oc1N1CCN(Cc2ccccc2)CC1
  2, 0, -5, -9, -2, x, x, i
CN1CCCC1CCNc1ccc2oc3ccccc3c(=O)c2c1 (stereo unspecified)
  31, x, x, 4, 3, 0, x, i
O=C(Nc1nccs1)C(c1ccccc1)N1CCCCC1 (stereo unspecified)
  -4, 3, 2, -2, 4, 10, -8, i
COCCCn1c(SCC(=O)n2c(C)c(C)c3ccccc32)nnc1-c1ccoc1C
  8, 6, 3, -7, 2, -5, -4, i
CC(CC(=O)O)CC(=O)Nc1ccccc1C(=O)O (stereo unspecified)
  -3, -1, 0, -9, 0, 16, -18, i
c1ccc(Nc2cc(Nc3ccccc3)[nH]n2)cc1
  3, 3, 0, 0, 7, -13, -1, i
CCOC(=O)C(C)(C)N(Cc1ccc(Cl)cc1)S(=O)(=O)c1ccc(Cl)c([N+](=O)[O-])c1
  109*, x, x, 2, 11, x, x, i
Cc1ccc(C(=O)NCCc2cc3ccc(C)c(C)c3[nH]c2=O)cc1[N+](=O)[O-]
  -1, 5, -1, -2, 5, x, x, i
O=C(COC(=O)Cc1ccc(Cl)cc1Cl)NCc1ccco1
  x, 5, 6, x, x, -5, -6, x
Cc1ccc(S(=O)(=O)N2CCCC2CNC(=O)C(=O)Nc2ccc(F)cc2)cc1 (stereo unspecified)
  -8, -3, -11, x, x, 4, -19, i
Nc1nc(N2CCOCC2)cc(=O)[nH]1
  -8, -2, 6, 3, -1, x, x, i
COc1cc2oc3ccc(C#Cc4ccc(N)cc4)cc3c(=O)c2cc1OC
  4, 3, -1, x, x, -38, -15, i
Cc1cccc(CN2[C@H](COC(=O)Nc3ccccc3)C=CS2(=O)=O)c1
  x, 3, 2, x, x, -4, 9, x
CC(C)N(CCNC(=O)C1CCN(S(=O)(=O)N2CCOCC2)CC1)Cc1ccccc1
  -2, 1, 5, -6, -5, x, -12, i
c1ccc2sc(N3CN(CCN4CCOCC4)CN(c4nc5ccccc5s4)C3)nc2c1
  7, -2, -1, 4, -9, x, -13, i
Fc1ccccc1COc1ccccc1CNCc1ccncc1
  -4, -5, -5, -6, -7, x, -23, i
COc1ccc(OCCSc2ncn[nH]2)cc1
  13, 0, 4, -10, -4, -35, -16, i
CC(C)Cc1nc(SCC(=O)N2CC(C)OC(C)C2)c2c(=O)n(C)c(=O)n(C)c2n1 (stereo unspecified)
  -3, -4, -2, 4, 6, 4, -18, i
O=C(COC(=O)/C=C/c1ccccc1)NCC1CCCO1 (stereo unspecified)
  -5, 2, 2, 0, -4, 1, x, i
O=C(Nc1ccccc1N1CCOCC1)c1ccc(Cl)nc1
  x, 0, 0, -1, 14, 8, x, i

Values run as follows: CSC inhib, MT1-MMP act inh, MT1-MMP act inh RFP, eIF4H FP inh, PABP polyA inh, HIV Env fusion, Yeast UUG start, Rce1 inhib
Cc1c(C(=O)N2CCN(c3ccccc3)CC2)sc2ncnc(N3CCC(C)CC3)c12
  x, x, x, -8, -8, x, x, i
O=C(NCCCn1ccnc1)C(=O)NCC(c1ccco1)N1CCN(c2ccc(F)cc2)CC1 (stereo unspecified)
  -6, -1, -7, 6, -1, -8, x, i
CCOc1ccc(S(=O)(=O)N2CCC(C(=O)N3CCc4ccccc4C3)CC2)cc1
  -12, 2, -4, -11, -4, 17, -1, i
CCC1CN(C(=O)N2CCC(C(=O)NCCc3ccccc3)CC2)c2ccccc2O1 (stereo unspecified)
  0, 1, -3, -1, 5, 10, -4, i
O=S(=O)(NCc1ccco1)c1ccc2ccccc2c1
  x, 1, 5, -3, 1, 1, -22, i
O=C(NCCNc1ccc([N+](=O)[O-])cc1)c1ccccc1Cl
  x, 3, 2, x, x, 1, -12, x
COc1ccc(CNC(=O)CCCCCn2c(SCC#N)nc3cc4c(cc3c2=O)OCO4)cc1
  7, 1, 2, 10, 5, 8, 4, i
O=C(c1ccccc1[N+](=O)[O-])N1CCC(Cc2ccccc2)CC1
  -2, -7, -6, 1, 6, x, -5, i
CS(=O)(=O)Nc1ccc(-c2n[nH]c(=S)n2-c2ccccc2)cc1
  -3, 5, 2, -9, 11, -2, x, i
COc1ccc(C(=O)N/C(=C\c2ccco2)C(=O)NC2CCS(=O)(=O)C2)cc1 (stereo unspecified)
  -3, -1, 3, -18, 0, 6, x, i
